AF4-AF9 inh: MLL-AF4/AF9 protein interaction inhibition | P42568 | AlphaScreen, biotin-AF4 peptide binding to FLAG-AF9 | inhibition, % at 10 µM | 350,000 tested, 0.47% active;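 active = every replicate reaching a set inhibition limit, whatever the replicate mean, cut at about 25% in these data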;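 also: 0% = plate neutral control median and 100% = total signal loss; the record names both 10 and 1 µM as test concentration; the first replicate is given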
Target sequence (P42568 whole entry, looked up): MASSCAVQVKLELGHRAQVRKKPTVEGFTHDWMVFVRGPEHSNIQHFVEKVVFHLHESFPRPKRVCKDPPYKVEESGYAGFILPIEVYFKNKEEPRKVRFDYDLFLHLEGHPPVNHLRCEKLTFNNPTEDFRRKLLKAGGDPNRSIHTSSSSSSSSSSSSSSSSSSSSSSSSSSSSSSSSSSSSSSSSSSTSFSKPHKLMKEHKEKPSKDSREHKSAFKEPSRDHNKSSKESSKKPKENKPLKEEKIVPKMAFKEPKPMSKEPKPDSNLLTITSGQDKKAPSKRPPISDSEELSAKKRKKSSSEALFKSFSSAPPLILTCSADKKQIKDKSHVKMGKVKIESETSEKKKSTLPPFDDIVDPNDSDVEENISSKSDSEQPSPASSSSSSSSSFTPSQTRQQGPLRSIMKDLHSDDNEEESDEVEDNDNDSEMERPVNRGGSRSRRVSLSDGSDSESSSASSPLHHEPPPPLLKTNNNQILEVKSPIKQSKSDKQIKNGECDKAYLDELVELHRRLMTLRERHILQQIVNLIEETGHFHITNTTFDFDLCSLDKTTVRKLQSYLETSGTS
Ecoli rRNA inh: selective bacterial rRNA inhibition in E. coli | E. coli WT GFP vs humanized-ribosome RFP mutants, fluorescence, 24 h; stronger effect = lower value; DMSO median 0, no signal -100 | GFP signal change (wild-type ribosome), % (no concentration beside the values) | 350,000 tested, 1.6% active | AID 720706;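 active = significant combined selectivity score with lowered wild-type GFP, culture density cut under 30%, mutant RFP and density less affected; inactive = any of these conditions unmet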; also: one replicate is shown; some compounds called inactive have numbers as strong as hits
Ecoli rRNA inh OD600: also measured in Ecoli rRNA inh; calls as there; OD600 change, %; measured here: OD600 growth;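 optical density of the mix in the first replicate; 0 = DMSO median and -100 = no signal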
Ecoli rRNA inh RFP: second read-out of Ecoli rRNA inh, no call of its own (marks repeat the call); RFP signal change, %; measured here: RFP humanized mutant strains;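 first replicate; 0 = DMSO median and -100 = no signal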
* = called active by the depositor; & = joins results of further samples. Not all compounds are listed. The share of hits here may be higher or lower than overall.

structure | Ecoli rRNA inh OD600 | AF4-AF9 inh | Ecoli rRNA inh | Ecoli rRNA inh RFP
C[C@H]1CCCCO[C@@H](CN(C)C(=O)Nc2ccccc2)[C@@H](C)CN([C@@H](C)CO)C(=O)c2cc(NC(=O)c3ccncc3)ccc2O1 | 2 | -1.7 | 1 | 0.7
COc1ccc(CN(C)C[C@H]2OCCCC[C@@H](C)Oc3ccc(NS(=O)(=O)c4ccc(C)cc4)cc3C(=O)N([C@H](C)CO)C[C@@H]2C)cc1 | -6 | -0.1 | -2 | 1.9
C[C@H](CO)N1C[C@H](C)[C@H](CN(C)Cc2ccc3c(c2)OCO3)Oc2ccc(NC(=O)C3CC3)cc2C1=O | 6 | -2.7 | 3 | 1.0
Cc1ccc(S(=O)(=O)n2oc(=O)c(C3CCCCC3)c2N)cc1 | -65 | 3.5 | -42 | -9.8
O=C1CNC(=O)c2cc(Cl)ccc2N1 | 17 | 1.5 | 14 | 2.9
CN1c2ccc(-c3ccccc3)cc2[C@@H]2[C@@H](CCN2C(=O)NC2CCCCC2)[C@H]1CO | -62 | 14 | -35 | 9.2
O=C(c1ccncc1)N1CC(=O)N2[C@H](CO)[C@@H](c3ccc(-c4cccnc4)cc3)[C@H]2C1 | 8 | -2.0 | 7 | -3.9
C[C@@H]1CCCCO[C@@H](CN(C)S(=O)(=O)c2cccs2)[C@@H](C)CN([C@@H](C)CO)C(=O)c2cc(NS(=O)(=O)c3ccccc3)ccc2O1 | 11 | -10 | -1 | -1.4
CO[C@H]1CN(C)C(=O)c2ccc(NC(C)=O)cc2OC[C@H](C)N(C(=O)CC2CC2)C[C@@H]1C | -5 | -0.4 | 1 | 0.4
CC(=O)N1CC(=O)N2[C@H](CO)[C@@H](c3ccc(-c4cccc(C(=O)N(C)C)c4)cc3)[C@@H]2C1 | 8 | -0.8 | 5 | 3.4
Cc1ccc(S(=O)(=O)Nc2ccc3c(c2)C(=O)N([C@H](C)CO)C[C@@H](C)[C@@H](CN(C)C(=O)CCC(F)(F)F)OCCCC[C@@H](C)O3)cc1 | -9 | -0.3 | -1 | 1.9
O=C1CN(Cc2ccccc2)C[C@H]2[C@@H](c3ccc(-c4ccccc4F)cc3)[C@H](CO)N12 | -19 | 7.5 | 2 | 8.8
O=C(Cc1ccccc1)N1CC(=O)N2[C@@H](CO)[C@H](c3ccc(C#CCc4ccccc4)cc3)[C@@H]2C1 | -13 | -1.7 | -6 | 22
COc1ccc2c3c([nH]c2c1)[C@@H](CO)N(C(=O)CN1CCOCC1)CC31CCN(CC2CCCC2)CC1 | 1 | 2.8 | 8 | -0.5
CO[C@@H]1CN(C)C(=O)c2cc(NC(=O)NC3CCCC3)ccc2OC[C@H](C)NC[C@H]1C | 4 | -5.1 | 2 | 0.1
CO[C@@H]1CN(C)C(=O)c2cc(NC(=O)c3ccc4c(c3)OCO4)ccc2OC[C@@H](C)NC[C@@H]1C | 4 | -0.9 | 3 | -2.3
COc1cccc(S(=O)(=O)N2CCC3(CC2)CN[C@H](CO)c2[nH]c4cc(OC)ccc4c23)c1 | -17 | 15 | -6 | 34
C[C@H](CO)N1C[C@H](C)[C@H](CN(C)Cc2cccc(C(=O)O)c2)Oc2ncc(C#C[C@@H](C)O)cc2C1=O | 5 | -5.1 | 3 | 0.9
C[C@H]1CCCCO[C@@H](CN(C)Cc2ccccc2)[C@@H](C)CN([C@@H](C)CO)C(=O)c2cc(NS(=O)(=O)c3ccc(F)cc3)ccc2O1 | -6 | 8.1 | 0 | 1.7
CCc1ccc(C(=O)CCC(=O)Nc2cccc(S(=O)(=O)N3CCCCC3)c2)cc1 | -11 | -0.9 | -11 | 3.9
C/C=C/c1ccccc1[C@@H]1[C@@H](C#N)N(C(C)=O)[C@H]1CO | 6 | -9.2 | 3 | 4.7
CC(C)C#Cc1ccc([C@H]2[C@H]3CN(C(=O)NC4CCCCC4)CC(=O)N3[C@H]2CO)cc1 | 1 | 1.6 | 4 | -6.2
CC(C)N(C[C@H]1N[C@H](CO)[C@@H]1c1ccc(C2=CCCC2)cc1)C(=O)CN(C)C | 7 | 8.9 | 4 | -2.4
O=C(C[C@@H]1CC[C@H](NC(=O)Cc2cccnc2)[C@H](CO)O1)Nc1ccccc1 | 9 | -1.3 | 2 | -1.3
Cc1cc(-c2ccccc2)cc(C)n1 | 9 | -4.2 | 8 | -0.1
COc1ccc(NC(=O)N(C)C[C@H]2Oc3c(cccc3N(C)C)C(=O)N([C@H](C)CO)C[C@H]2C)cc1 | -3 | -1.5 | -2 | 0.3
C[C@@H]1CCCCO[C@H](CN(C)Cc2ccc(C(=O)O)cc2)[C@H](C)CN([C@H](C)CO)C(=O)c2cc(NC(=O)Nc3ccc(C(F)(F)F)cc3)ccc2O1 | 1 | 0.3 | -2 | 2.0
O=C(C1CCOCC1)N1CC(=O)N2[C@H](C1)[C@H](c1ccc(C#CC3CC3)cc1)[C@@H]2CO | 14 | -0.8 | 1 | -0.8
COc1cccc(CN2[C@@H](CO)[C@H](c3ccccc3)C23CN(C(=O)C2CCCC2)C3)c1 | -1 | 0.9 | 1 | 0.6
C[C@@H]1CN([C@@H](C)CO)S(=O)(=O)c2ccc(/C=C/c3ccccc3)cc2O[C@@H]1CN(C)C(=O)c1ccc2c(c1)OCO2 | -5 | 1.8 | -6 | -2.3
N#C[C@H]1[C@@H](c2ccccc2C2=CCCC2)[C@@H](CO)N1C(=O)NC1CCCC1 | -48 | 2.0 | -5 | -5.3
N#C[C@H]1[C@@H](c2ccccc2-c2cccc(F)c2)[C@H](CO)N1C(=O)c1cccnc1 | -6 | -0.4 | -1 | 3.6
CCN1[C@H](C(=O)NC2CCC2)[C@@H](CO)[C@@H]2Cn3c(ccc(-c4ccc(F)cc4)c3=O)[C@@H]21 | -7 | -3.6 | -3 | -3.0
Cc1cccc(S(=O)(=O)N2[C@@H]3CNC[C@H]2C3c2ccc(-c3cncnc3)cc2)c1 (some centres not stated) | 1 | -4.2 | 2 | 2.5
COc1ccccc1C#Cc1ccc2c(c1)[C@@H]1[C@@H](CCN1C(=O)c1ccncc1)[C@H](CO)N2 | 4 | 17 | 3 | 5.0
C[C@H]1CN([C@@H](C)CO)C(=O)c2cc(NC(=O)CCC(F)(F)F)ccc2O[C@H]1CN(C)CC1CCCCC1 | 6 | -3.0 | 5 | -1.4
COc1ccc(CN(C)C[C@@H]2OCCCC[C@H](C)Oc3ccc(NS(=O)(=O)c4ccc(C)cc4)cc3C(=O)N([C@@H](C)CO)C[C@H]2C)cc1 | -12 | 3.0 | 1 | 2.8
CO[C@@H]1CN(C)C(=O)c2ccc(NC(=O)Cc3ccccc3)cc2OC[C@@H](C)N(C)C[C@@H]1C | 3 | 1.0 | 1 | -1.2
Cc1noc(C)c1NC(=O)N(C)C[C@H]1Oc2ccc(NC(=O)CCC(F)(F)F)cc2C(=O)N([C@@H](C)CO)C[C@H]1C | 0 | -1.2 | 3 | -4.7
COC(=O)C[C@@H]1CC[C@@H]2[C@H](COc3ccc(NC(=O)c4ccc(F)c(F)c4)cc3C(=O)N2C)O1 | 2 | -1.0 | 0 | 0.7
O=C(Nc1ccc(C(F)(F)F)cc1)N1[C@@H]2CNC[C@H]1C2c1ccc(-c2cccnc2)cc1 (some centres not stated) | -73&-75 | 1.7&-1.5 | -58&-62 | -9.8&-11
CCC(=O)N1[C@H](CN(C)C(C)=O)[C@H](c2ccc(C3=CCCC3)cc2)[C@@H]1CO | -7 | -5.1 | -1 | -0.2
COc1cccc(-c2ccc([C@@H]3[C@@H](CO)N4C(=O)CN(C(=O)C5CCC5)C[C@H]34)cc2)c1 | -9 | 3.5 | -3 | -4.0
C[C@@H]1CCCCO[C@H](CN(C)C(=O)c2ccccc2)[C@@H](C)CN([C@@H](C)CO)C(=O)c2cc(NS(=O)(=O)c3cn(C)cn3)ccc2O1 | 6 | 1.0 | 5 | -1.9
COc1ccccc1CN1C[C@@H]2N[C@H](C1)C2c1ccc(-c2ccc(C#N)cc2)cc1 (some centres not stated) | -75&-78 | 11&9.4 | -58&-58 | -15&-14
CCC(=O)N1[C@H](C(=O)N[C@H](C)c2ccccc2)[C@@H](CO)[C@@H]2Cn3c(cccc3=O)[C@@H]21 | 4 | -13 | 3 | -0.6
Cn1c(=O)c2[nH]c(CCCCCc3nc4ccccc4[nH]3)nc2n(C)c1=O | 5 | 0.1 | 6 | 8.1
COc1ccc(-c2cn(CC[C@@H]3CC[C@@H](NC(=O)Nc4ccc(F)cc4)[C@@H](CO)O3)nn2)cc1 | -3 | -4.0 | -1 | -0.1
CCC(=O)N1C[C@@H](C)[C@@H](OC)CN(C)C(=O)c2cc(NC(=O)NC3CCCC3)ccc2OC[C@H]1C | -3 | -2.3 | -1 | -0.7
C/C=C/c1ccc([C@H]2[C@H](CO)N(C(=O)c3cnccn3)C23CN(C(=O)C2CC2)C3)cc1 | 5 | 3.0 | 2 | 1.2

For convenience, eleven of the compounds above.
structure | Ecoli rRNA inh OD600 | AF4-AF9 inh | Ecoli rRNA inh | Ecoli rRNA inh RFP
COC(=O)C[C@@H]1CC[C@@H]2[C@H](COc3ccc(NC(=O)c4ccc(F)c(F)c4)cc3C(=O)N2C)O1 | 2 | -1.0 | 0 | 0.7
O=C(Nc1ccc(C(F)(F)F)cc1)N1[C@@H]2CNC[C@H]1C2c1ccc(-c2cccnc2)cc1 (some centres not stated) | -73&-75 | 1.7&-1.5 | -58&-62 | -9.8&-11
CCC(=O)N1[C@H](CN(C)C(C)=O)[C@H](c2ccc(C3=CCCC3)cc2)[C@@H]1CO | -7 | -5.1 | -1 | -0.2
COc1cccc(-c2ccc([C@@H]3[C@@H](CO)N4C(=O)CN(C(=O)C5CCC5)C[C@H]34)cc2)c1 | -9 | 3.5 | -3 | -4.0
C[C@@H]1CCCCO[C@H](CN(C)C(=O)c2ccccc2)[C@@H](C)CN([C@@H](C)CO)C(=O)c2cc(NS(=O)(=O)c3cn(C)cn3)ccc2O1 | 6 | 1.0 | 5 | -1.9
COc1ccccc1CN1C[C@@H]2N[C@H](C1)C2c1ccc(-c2ccc(C#N)cc2)cc1 (some centres not stated) | -75&-78 | 11&9.4 | -58&-58 | -15&-14
CCC(=O)N1[C@H](C(=O)N[C@H](C)c2ccccc2)[C@@H](CO)[C@@H]2Cn3c(cccc3=O)[C@@H]21 | 4 | -13 | 3 | -0.6
Cn1c(=O)c2[nH]c(CCCCCc3nc4ccccc4[nH]3)nc2n(C)c1=O | 5 | 0.1 | 6 | 8.1
COc1ccc(-c2cn(CC[C@@H]3CC[C@@H](NC(=O)Nc4ccc(F)cc4)[C@@H](CO)O3)nn2)cc1 | -3 | -4.0 | -1 | -0.1
CCC(=O)N1C[C@@H](C)[C@@H](OC)CN(C)C(=O)c2cc(NC(=O)NC3CCCC3)ccc2OC[C@H]1C | -3 | -2.3 | -1 | -0.7
C/C=C/c1ccc([C@H]2[C@H](CO)N(C(=O)c3cnccn3)C23CN(C(=O)C2CC2)C3)cc1 | 5 | 3.0 | 2 | 1.2

3 structures out of the list, sorted by length of the SMILES, largest number first:
structure | Ecoli rRNA inh OD600 | AF4-AF9 inh | Ecoli rRNA inh | Ecoli rRNA inh RFP
C[C@@H]1CCCCO[C@H](CN(C)C(=O)c2ccccc2)[C@@H](C)CN([C@@H](C)CO)C(=O)c2cc(NS(=O)(=O)c3cn(C)cn3)ccc2O1 | 6 | 1.0 | 5 | -1.9
CCC(=O)N1[C@H](C(=O)N[C@H](C)c2ccccc2)[C@@H](CO)[C@@H]2Cn3c(cccc3=O)[C@@H]21 | 4 | -13 | 3 | -0.6
C/C=C/c1ccc([C@H]2[C@H](CO)N(C(=O)c3cnccn3)C23CN(C(=O)C2CC2)C3)cc1 | 5 | 3.0 | 2 | 1.2

More entries
structure | Ecoli rRNA inh OD600 | AF4-AF9 inh | Ecoli rRNA inh | Ecoli rRNA inh RFP
CCCNC(=O)N1CC2(CCN(C(=O)C3CCOCC3)CC2)c2c([nH]c3cc(OC)ccc23)[C@H]1CO | 4 | -17 | 4 | 0.6
C[C@@H]1CCCCO[C@@H](CN(C)C(=O)Nc2ccccc2)[C@H](C)CN([C@@H](C)CO)C(=O)c2cc(NC(=O)CCCN(C)C)ccc2O1 | 0 | 0.2 | 2 | 0.1
CC(=O)N1[C@H](CO)[C@H](c2ccc(-c3ccccc3)cc2)[C@H]1CNC(=O)NC(C)C | 4 | -4.7 | -2 | -2.4
O=C(C[C@H]1CC[C@@H](NC(=O)CC2CC2)[C@H](CO)O1)NCc1ccccc1 | 7 | -4.3 | 1 | -2.3
COc1cc(CN2CC3(CN(S(=O)(=O)c4cccc(F)c4)C3)c3c([nH]c4cc(OC)ccc34)[C@H]2CO)cc(OC)c1 | -3 | -6.1 | -3 | 0.8
O=C(NC1CCCC1)N1CC(=O)N2[C@@H](CO)[C@@H](c3ccc(-c4cccnc4)cc3)[C@@H]2C1 | 17 | -1.0 | -1 | 0.6
CC(C)CC#Cc1ccc([C@H]2[C@H](CO)N3C(=O)CN(C(=O)c4ccccn4)C[C@@H]23)cc1 | 6 | 0.1 | 4 | -0.3

Screening results: PubChem, Broad Institute
